Assay outcomes: PubChem, National Center for Advancing Translational Sciences (NCATS)
PK Bst: modulators of Bacillus stearothermophilus pyruvate kinase | AID 361 | partly purified Bacillus stearothermophilus pyruvate kinase, luminescence ATP production; ribose 5-phosphate activator present at AC10 | actives 1.2% (n = 51,000) | Potency, µM; in the data active means potency below about 11 µM; inconclusive means mostly about 12 µM to 25 µM; inactive means weaker than that;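 the screen sought inhibitors and activators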;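 further: potency means the concentration at half of the fitted maximal effect; scaled between full activation by ribose 5 phosphate and full inhibition by luteolin; about four in five hits inhibit and the cells do not say which; series up to 57 µM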
TsaE inh: displaces an ADP probe from E. coli YjeE (TsaE). P0AF67. purified YjeE, fluorescence polarisation of a bound ADP probe. Potency, µM. actives 0.05% (n = 71,000); active = well fitted falling curve; inconclusive = weaker or top-dose-only fall, or a rising curve; inactive = flat or poorly fitted curve;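 further: top concentration of the series not given in the record; excess ADP was the control for the full effect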
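Purified YjeE (10 uM) with BODIPY Texas Red-labeled ADP probe (2 uM); compounds pin-transferred, 15 min at room temperature. Binding inhibition read as decreased fluorescence polarization; ADP titration as control.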
* hit, by the source's call; i = inactive; ? = inconclusive; · = no result given. Not all compounds are listed; count on the stated rates, not on these rows.

SMILES	PK Bst	TsaE inh
CCOC(=O)CN(C(=O)CSc1nnc2c(n1)[nH]c1ccccc12)c1ccccc1	>57	i
O=C1NC2(CCOc3ccccc32)C(=O)N1CC(=O)N(Cc1ccccc1)C1CCS(=O)(=O)C1 (stereo not drawn)	>57	i
CCOC(=O)CSc1nc(C)cc(=O)[nH]1	>57	i
COc1ccc(NC(=O)C2CCN(c3cc(-c4ccccc4)nc4ncnn34)CC2)cc1OC	·	i
O=c1c(-c2ccc3c(c2)OCCO3)coc2cc(O)cc(O)c12	6*	i
CCOC(=O)C1CCN(C(=O)COc2ccc(Br)cc2)CC1	>57	i
Cc1ccc(-c2noc(CCCC(=O)N3CCOCC3)n2)cc1	>57	i
Cc1ccc(N2CCN(C(=O)c3ccccc3)CC2)c(C)c1	>57	i
CCCN(CCC)S(=O)(=O)c1ccc(C(=O)Nc2nnc(-c3cccc(OC)c3)o2)cc1	>57	i
COc1ccccc1CNc1ncncc1-c1ccc2c(c1)OCO2	·	i
O=C1CC2(CCCC2)CC(=O)N1CCCCN1CCN(c2ncccn2)CC1	·	i
O=S(=O)(O)c1cc(O)c2c(N=Cc3ccccc3O)cc(S(=O)(=O)O)cc2c1	·	i
O=C(O)[C@@H](O)[C@@H](O)[C@H](O)C(=O)CO	·	i
O=C1CCC(C(=O)NC2(C(=O)NC3CCCCC3)CCCCC2)N1 (stereo not drawn)	>57	i
CCN(CC)S(=O)(=O)N1CCC(C(=O)NCc2ccc(C)cc2)CC1	>57	i
Cc1ccc2cc(CCNC(=O)C3CCCC3)c(=O)[nH]c2c1	·	i
Cc1ccc(NC(=O)C2CCCN(S(=O)(=O)c3c(C)noc3C)C2)c(C)c1 (stereo not drawn)	>57	i
Cc1nc2nc(C)c(CCC(=O)NCc3ccc4c(c3)OCO4)c(C)n2n1	>57	i
O=C(COc1ncnc2ccccc12)N1CCOCC1	>57	i
CCCCS(=O)(=O)NC1=NCN(C2CCN(Cc3ccccc3)CC2)CN1	>57	i
O=C(NCCC1=CCCCC1)C1CCCN(c2nc3ccccc3o2)C1 (stereo not drawn)	>57	i
Cc1nn(-c2ccccc2)c2sc(C(=O)N(Cc3ccco3)C(C)C(=O)NC(C)(C)C)cc12 (stereo not drawn)	>57	i
C=CCOc1ccc(/C(O)=C2/C(=O)C(=O)N(CCCN3CCOCC3)C2c2ccccc2)cc1 (stereo not drawn)	>26	·
COc1ccc2c(c1)CCC1C2CC[C@]2(C)[C@H](NCCCCCCN3C(=O)C=CC3=O)CC[C@@H]12 (stereo partly drawn)	·	i
CCCP(=O)(CC(=O)N(CC)CC)c1ccccc1 (stereo not drawn)	·	i
COc1ccc(C2CC(=O)C(C=NCCN3CCNCC3)=C(O)C2)cc1OC (stereo not drawn)	·	i
O=S(=O)(Cc1ccccc1Cl)N1CCCCC1	>57	i
COc1cccc(NC(=O)c2cc(C(=O)Nc3cccc(OC)c3)n(C)n2)c1	>26	·
Cc1ccsc1C1NC(=O)c2c(sc3c2CCCC3)N1 (stereo not drawn)	i	·
CCn1c2ccccc2c2nnc(SCC(=O)NC(C(=O)OC)C(C)C)nc21 (stereo not drawn)	>57	i
c1ccc(CCNCc2ccco2)nc1	·	i
O=C1CC(c2ccc(Cl)cc2)CC(O)=C1C=NCCN1CCNCC1 (stereo not drawn)	·	i
C[C@@H]1C(=O)NC2=Nc3cccc(Cl)c3CN21	·	i
CC(C)OCCCNC(=O)Cn1ncc2c(=O)oc3ccccc3c21	>57	i
O=S(=O)(c1cccc2nsnc12)N1CCc2ccccc21	i	i
CC(C)(C)c1nc(CN2CCCCC2)cc(CN2CCCCC2)c1O	·	i
CC1CCN(C(c2ccc(N(C)C)cc2)c2nnnn2Cc2ccc(F)cc2)CC1 (stereo not drawn)	>57	i
COC(=O)c1ccc(C(=O)OC)c(NC2=NS(=O)(=O)c3ccccc32)c1	>57	i
Cc1cc(N)c2ccccc2[n+]1CCCCCCCCCCCCCC[n+]1c(C)cc(N)c2ccccc21	·	?
O=C(c1sc2ccccc2c1Cl)N(Cc1cccs1)C1CCS(=O)(=O)C1 (stereo not drawn)	·	i

Taken from above.
COC(=O)c1ccc(C(=O)OC)c(NC2=NS(=O)(=O)c3ccccc32)c1 in PK Bst is listed with >57
C=CCOc1ccc(/C(O)=C2/C(=O)C(=O)N(CCCN3CCOCC3)C2c2ccccc2)cc1 (stereo not drawn) in PK Bst is listed with >26

Going on with the list.
SMILES	PK Bst	TsaE inh
COC(=O)c1[nH]c2cc(OC)ccc2c1NC(=O)CCN1CCN(c2cccc(C)c2C)CC1	>57	i
Brc1ccc(-c2nnc3sc(CN4CCC5(CC4)OCCO5)cn23)cc1	>57	i
O=C(CN1C(=O)COc2ccccc21)N(Cc1ccccc1)Cc1ccccn1	>57	i
Cc1nc2ccc(NC(=O)Nc3ccnc4cccnc34)cc2o1	·	i
CCCC(c1nnnn1Cc1ccc(OC)cc1)N1CCC(C(N)=O)CC1 (stereo not drawn)	>57	i
OC1CN=C2CCCc3c2n(c2ccc(Cl)cc32)C1 (stereo not drawn)	·	i
NCCOc1ccccc1-c1ccccc1	>57	i
COc1ccc(-c2cn3c(C)c(C(=O)NC(C)C)sc3n2)cc1	>57	i
CCn1c(SCC(=O)N2CCOCC2)nc2oc3c(Cl)cc(Cl)cc3c(=O)c2c1=O	>57	i
CCc1ccccc1-n1c(SCC(=O)Nc2ccc3c(c2)OCCO3)nc2[nH]ncc2c1=O	>57	i
COCCNC(=O)C1CCN(S(=O)(=O)N2CCC3(CC2)OCCO3)CC1	>57	i
CCCC(=O)N(c1ccc(OCC)cc1)C1C=CS(=O)(=O)C1 (stereo not drawn)	>57	i
CCOCCn1c(CN2CCN(c3ccc(F)cc3)CC2)nc2c1c(=O)n(C)c(=O)n2C	>57	i
O=C(c1ccccc1)N(Cc1ccc(F)cc1)C1CCS(=O)(=O)C1 (stereo not drawn)	>57	i
CCCc1cc(=O)n2[nH]c(-c3ccc(C)cc3)cc2n1	·	i
O=c1[nH]c(SCc2c(Cl)c(Cl)c(Cl)c(Cl)c2Cl)nc(=S)[nH]1	·	i
CCN(CC(=O)NCc1ccc(F)cc1)Cc1nc2ccccc2c(=O)[nH]1	>57	i
COc1ccc(NC(=O)CSc2nnc(Cc3cccn3C)n2-c2ccc(OC)cc2)cc1	·	i
OCCn1c(SCCOc2ccccc2F)nc2ccccc21	·	i
CC1CCN(S(=O)(=O)c2ccc(Cl)cc2)CC1	·	i
O=C1c2oc3ccccc3c(=O)c2C(c2ccc(Cl)cc2)N1c1ncccn1 (stereo not drawn)	>57	i
Cc1cc(C)nc(-n2nc(C)cc2NC(=O)c2cc(=O)c3ccccc3o2)n1	>57	i
O=S1(=O)CCC(SCc2nc3sccn3c2Br)C1 (stereo not drawn)	>11	i
CCOC(=O)c1oc2ccc(S(=O)(=O)N3CCC(C)CC3)cc2c1C	>57	i
c1csc(C2C3=C(Nc4ncnn42)c2ccccc2OC3)c1 (stereo not drawn)	·	i
COC(=O)[C@@]1(Cc2ccccc2)[C@H]2c3cc(C(=O)N4CCCC4)n(Cc4ccc(OC)c(OC)c4)c3C[C@H]2CN1C(=O)c1ccccc1	·	i
CCCN1C2CCCC1CC(NC(=O)c1ccccc1F)C2 (stereo not drawn)	>57	i
COC(=O)c1ccc2c(=O)n(NC(C)=O)c(=S)[nH]c2c1	>57	i
Cc1cc(C)nc(SCc2nc(N)nc(-c3ccccc3O)n2)n1	>57	i
COc1ccc(NC(=O)CSc2nnc(C(C)C)n2N)cc1	>57	i
O=S(=O)(Nc1nc2ccccc2nc1N1CCN(c2ccccn2)CC1)c1ccc(Cl)cc1	>57	i
Cc1cc(S(=O)(=O)NCc2ccc(S(N)(=O)=O)cc2)c(C)s1	>57	i
CCCn1c(-c2ccc(F)cc2)nc2c(N(C)CCN(C)C)nc(C)nc21	·	i
CC(C)n1c(NCc2c[nH]c3ccccc23)nc2ccccc21	>57	i
COc1cc(S(=O)(=O)N2CCN(c3ccccc3F)CC2)ccc1Cl	>11	i
CN1CCc2[nH]nc(-c3n[nH]c4c3CN(C)CC4)c2C1	·	i
COc1c(O)cc2oc3cc(O)c(CC=C(C)C)c(O)c3c(=O)c2c1CC=C(C)C	·	i
COc1cccc(/C(O)=C2/C(=O)C(=O)N(CCN3CCOCC3)C2c2cccs2)c1 (stereo not drawn)	>57	i
CC1(C)N=C(c2ccc(Cl)cc2)C(=O)N1	>57	i
Cc1nn(CC(=O)NCc2cccnc2)c(=O)c2ccccc12	>57	i

Quoted from above for reference:
SMILES	PK Bst	TsaE inh
O=C1c2oc3ccccc3c(=O)c2C(c2ccc(Cl)cc2)N1c1ncccn1 (stereo not drawn)	>57	i
Cc1cc(C)nc(-n2nc(C)cc2NC(=O)c2cc(=O)c3ccccc3o2)n1	>57	i
O=S1(=O)CCC(SCc2nc3sccn3c2Br)C1 (stereo not drawn)	>11	i
CCOC(=O)c1oc2ccc(S(=O)(=O)N3CCC(C)CC3)cc2c1C	>57	i
c1csc(C2C3=C(Nc4ncnn42)c2ccccc2OC3)c1 (stereo not drawn)	·	i
COC(=O)[C@@]1(Cc2ccccc2)[C@H]2c3cc(C(=O)N4CCCC4)n(Cc4ccc(OC)c(OC)c4)c3C[C@H]2CN1C(=O)c1ccccc1	·	i

Further compounds follow.
SMILES	PK Bst	TsaE inh
COC(=O)c1ccccc1NC(=O)c1cccs1	·	i
COc1cc(-c2nc(S(=O)(=O)c3ccccc3)c(N3CCOCC3)o2)cc(OC)c1OC	>57	i
CCn1c(=O)cc(OCC(=O)O)c2ccccc21	>57	i
O=C(O)CSc1nnc(C2COc3ccccc3O2)n1-c1ccccc1 (stereo not drawn)	·	i
O=C(CN1CCN(c2ccccn2)CC1)Nc1ccc(Oc2ccccc2)cc1	>57	i
CN(C)c1ncc2ncc(=O)n(CCc3ccccc3)c2n1	·	i
Cc1cc(NC(=O)Cc2c(F)cccc2Cl)no1	>57	i
CC1S/C(=C(\C#N)C(=O)NCc2ccco2)N(c2ccc(F)cc2)C1=O (stereo not drawn)	>57	i
O=C(CN1C(=O)c2ccccc2C1=O)[C@@H](O)CN1C(=O)c2ccccc2C1=O	·	i
CSc1cccc(NC(=O)CN(C)S(=O)(=O)c2ccccc2)c1	>57	i
COc1ccccc1N(CC(=O)NCCSC(C)(C)C)S(C)(=O)=O	·	i
Cc1nnc2n(CCc3ccccc3)c(=O)c3c4c(sc3n12)CCCC4	>57	i
COc1ccc(NC(=O)C2CC(=O)OC2(C)C)cc1 (stereo not drawn)	>57	i
COc1ccc(Cc2nnc(NC(=O)c3c(-c4ccccc4)noc3C)s2)cc1OC	·	i
CCN1CCN(C(=O)CSCc2nc(-c3ccc(OC)c(OC)c3)oc2C)CC1	·	i
CCN1CCN(c2nc(C)nc3c2sc(=S)n3C)CC1	·	i
CCOc1ccc(N(CC(=O)NCc2ccc(F)cc2)S(=O)(=O)c2c(C)noc2C)cc1	·	i
Cc1ccc(S(=O)(=O)NCCC(=O)NC2CCCC2)cc1	>57	i
COc1ccc2occ(NC(C)=O)c2c1	>57	i
CCOC(=O)C(NC(C)=O)(OCc1ccc(F)cc1)C(F)(F)F (stereo not drawn)	>57	i
Cc1c(C#N)c(SCC(N)=O)nc2c1CCCC2	>57	i
CC(=O)NCCc1ccc(S(=O)(=O)N(C)C2CCS(=O)(=O)C2)cc1 (stereo not drawn)	>57	i
CC(C)C1O/C(=N/C(=O)Nc2ccc(Cl)c(Cl)c2)NC1=O (stereo not drawn)	?	i
O=C(COC(=O)C1CCCO1)Nc1cccc(C(F)(F)F)c1 (stereo not drawn)	>57	i
CC(C)(C)NC(=O)CN(C(=O)C1(C)CC(=O)N=C2C=CC=CN21)C1CCCC1 (stereo not drawn)	>57	i
Cc1cccc(Cn2c(CN3CCN(Cc4ccccc4)CC3)nc3c2c(=O)[nH]c(=O)n3C)c1	·	i
COc1cc(NC(=O)C2CCCCC2)c(OC)cc1NC(=O)c1ccco1	>57	i
Cc1cccc2cc(COC(=O)C3CCCCC3)c(=O)[nH]c12	>57	i
Cc1ccc2c(c1)[nH]c1c(N3CCN(Cc4ccc5c(c4)OCO5)CC3)ncnc12	i	i
COC(=O)c1ccc(Nc2cc(C)nc3ncnn23)cc1	?	i
CCOc1ccc(OCC)c(S(=O)(=O)N2CCCCC2C)c1 (stereo not drawn)	>57	i
Cn1cccc1Cc1nnc(SCC(=O)N2CCOCC2)n1CCc1ccccc1	·	i
COC(=O)c1ccc(C(=O)OC)c(NC(=O)COC(=O)C23CC4CC(CC(O)(C4)C2)C3)c1	>57	i
CNc1ncnc2ccc(-c3cccc(NS(C)(=O)=O)c3)cc12	·	i
O=C(Nn1cnnc1)c1cc2c(s1)CCCCC2	·	i
COc1cccc(C2(O)CCN(C(=O)c3cccs3)CC2)c1	>57	i
c1ccc(-c2nnc(OCCN3CCOCC3)c3ccccc23)cc1	>11	·
O=C(O)/C=C\c1ccc(O)c(O)c1	·	i
Cn1c(Cn2c(=O)sc3ccccc32)nnc1SCC(=O)NCc1ccc2c(c1)OCO2	·	i
O=C(c1cnc(N2CCN(c3ncccn3)CC2)c2ccccc12)N1CCN(c2ccccn2)CC1	>57	i
c1ccc(C2COC(c3cccs3)=N2)cc1 (stereo not drawn)	>57	i
O=c1[nH]c(SCc2cccc([N+](=O)[O-])c2)nc2nc[nH]c12	·	i

Retrieved one by one from the list above, three records:
SMILES	PK Bst	TsaE inh
Cc1ccsc1C1NC(=O)c2c(sc3c2CCCC3)N1 (stereo not drawn)	i	·
O=S(=O)(Cc1ccccc1Cl)N1CCCCC1	>57	i
CC(C)n1c(NCc2c[nH]c3ccccc23)nc2ccccc21	>57	i
